Assay outcomes deposited in PubChem BioAssay by Southern Research Institute.
Mtb H37Rv: Mycobacterium tuberculosis H37Rv growth inhibition, putative kinase inhibitor library, confirmatory dose response (AID 2842); M. tuberculosis H37Rv growth inhibition; higher % means a stronger effect; some inactives read as strong as hits; inhibition, % at 10 µg/mL; hits with a dose series show IC90 in µg/mL; 24,000 tested, 5.2% active;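 active = confirmed in a dose series; about a fifth of its hits are not listed in these tables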;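 note: bacteria incubated one week before Alamar blue readout; 0% = bacteria only wells and 100% = bacteria with high antibiotic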
Starred values were filed as active, the others as inactive. Not all compounds are listed. The share of hits here may be higher or lower than overall.

mol | Mtb H37Rv
CCOC(=O)c1nn(-c2ccc(C(F)(F)F)cc2)c(=O)c2c(NC(=O)Cc3ccccc3)scc12 | 1.4%
CCOC(=O)c1nn(-c2cccc(F)c2)c(=O)c2c(NC(=O)c3ccc(S(=O)(=O)N4CCCC4)cc3)scc12 | -4.4%
CN(C)C(CNS(=O)(=O)c1ccc([N+](=O)[O-])cc1)c1cccnc1 (stereo not given) | -13.4%
COc1cccc2c(=O)n(CC(=O)NC3CCCCC3)ccc12 | 12.7%
CC1CCc2sc(NC(=O)c3ccc(S(=O)(=O)N4CCCCC4)cc3)c(C(N)=O)c2C1 (stereo not given) | 9.6%
O=C(CN1C(=O)c2cccc3cccc(c23)C1=O)Nc1nc2ccccc2s1 | 5.8%
COc1ccc(-c2cc(=Nc3cccc(OC)c3)c3cc(O)ccc3o2)cc1 | 17.3%
COCCNc1ncnc(N)c1[N+](=O)[O-] | -3.1%
Cc1ccc(Cn2c(N3CCN(Cc4c(F)cccc4Cl)CC3)nc3c2c(=O)[nH]c(=O)n3C)cc1 | 1.1%
Cc1ccccc1-c1nnc(NC(=O)c2c(F)cccc2Cl)s1 | 97.7%
Cn1c(=O)[nH]c(=O)c2c1nc1n2CC(c2ccc(Cl)cc2)=NN1 | 7.2%
O=C1CC(c2nc3ccccc3[nH]2)CN1c1cccc(C(F)(F)F)c1 (stereo not given) | 6.5%

Rewritten with each value named: part of the list above.
COc1ccc(-c2cc(=Nc3cccc(OC)c3)c3cc(O)ccc3o2)cc1
  Mtb H37Rv: 17.3%

COCCNc1ncnc(N)c1[N+](=O)[O-]
  Mtb H37Rv: -3.1%

CCOC(=O)c1nn(-c2ccc(C(F)(F)F)cc2)c(=O)c2c(NC(=O)Cc3ccccc3)scc12
  Mtb H37Rv: 1.4%

Other records
mol | Mtb H37Rv
O=C(Nc1nc(-c2ccc(I)cc2)cs1)c1ccc(S(=O)(=O)N2CCc3ccccc32)cc1 | 10.8%
CC1(C)Cc2c(sc(NC(=O)c3ccccc3F)c2C(N)=O)C(C)(C)N1 | 3.5%
Cc1ccc2cc(CCNC(=O)c3ccc(F)c(F)c3)c(=O)[nH]c2c1C | 1.3%
O=C(c1ccco1)N(CCCn1ccnc1)c1nc2ccccc2s1 | 4.28µg/mL*
Cn1c(=O)[nH]c(=O)c2c1nc(Sc1ccccc1)n2CCCc1ccccc1 | -5.8%
Cc1ccc(C)c2[nH]c(=O)c(CCNC(=S)Nc3ccc(F)cc3)cc12 | 59.2%
CC(Cl)C(=O)Nc1nnc(-c2ccc(Br)cc2)s1 (stereo not given) | 7.0%
O=C(CN1C(=O)/C(=C/c2cccc(Cl)c2)SC1=S)Nc1ccc2oc(=O)ccc2c1 | -3.2%
Cc1ccc(N2C(=O)SC(Nc3ccccc3C(=O)O)C2=O)cc1C (stereo not given) | 40.3%
Cc1cc2c(Nc3ccc(N(C)C)cc3)ncnc2s1 | 51.5%
Cc1cc2cc(CCNC(=O)c3ccc(Cl)c([N+](=O)[O-])c3)c(=O)[nH]c2cc1C | 13.5%
O=C1c2cccc3cccc(c23)C(=O)N1CCc1ccc(S(=O)(=O)N2CCCCCC2)cc1 | 4.3%
O=c1/c(=C/c2ccc([N+](=O)[O-])cc2)sc2nc(-c3ccco3)nn12 | 0.9%
CCC(=O)NCCc1cc2c(C)ccc(C)c2[nH]c1=O | 3.0%
O=C(c1cc2cc([N+](=O)[O-])ccc2oc1=O)N1CCc2ccccc21 | -4.2%
Cc1ccc(-n2c(=O)[nH]c3c(C(N)=O)nc(-c4ccc(C(C)C)cc4)nc32)cc1C | -7.6%
CC(=O)c1ccc(C(=O)Nc2nnc(-c3ccco3)o2)cc1 | 81.7%
COc1ccc(Cl)cc1S(=O)(=O)Nc1cccc(C(=O)O)c1 | -14.9%
O=C1CCc2cc(S(=O)(=O)Nc3ccccc3Cl)cc3c2N1CC3 | -7.9%
Cc1ccc2cc(CCNC(=O)C(C)(C)C)c(=O)[nH]c2c1 | -6.2%
N#Cc1ccc(C(=O)Nc2nc(-c3ccc4c(c3)OCCO4)cs2)cc1 | -3.8%
c1ccc(CN2CCN(c3ncnc4nc[nH]c34)CC2)cc1 | 10.5%
O=C(CCN1C(=O)c2ccccc2S1(=O)=O)Nc1ccc2c(c1)OCO2 | -9.4%
O=C(CSc1nc2ccccc2o1)N1CCN(c2ccccc2)CC1 | -14.2%
COc1cccc(NC(=O)Cn2cc(C(=O)c3ccccc3)c(=O)c3cc(F)ccc32)c1 | -5.6%
Cc1ccc(C(=O)Nc2nnc(-c3ccccc3)s2)cc1C | 4.7%
CCOc1cc(-c2nnc(NC(=O)/C=C/c3cccs3)o2)cc(OCC)c1OCC | 2.2%
Cc1ccc(-n2nnc3c(SCC(=O)Nc4ccc(C)c(Cl)c4)ncnc32)cc1 | 7.8%
CCCc1nc(SCC(=O)Nc2cc(C)cc(C)c2)c2c(=O)n(C)c(=O)n(C)c2n1 | -8.8%
NC(=O)c1oc2ccccc2c1NC(=O)COc1ccc(Cl)cc1 | 7.0%
O=c1[nH]c(N/N=C/C2CC=CCC2)nnc1-c1ccccc1 (stereo not given) | -2.0%
Cc1nc2c(ccc3nc(NC(=O)Cc4ccccc4)sc32)s1 | 2.92µg/mL*
COc1cccc(C(=O)Nc2nc(-c3nc4ccccc4s3)cs2)c1 | 5.4%
O=C(Nc1nc(-c2ccc(Cl)c(Cl)c2)cs1)c1ccc(-c2ccccc2)cc1 | 11.4%
CCOC(=O)c1oc2ccccc2c1NC(=O)c1c(F)cccc1Cl | 6.3%
Cc1ccc2cc(CCNC(=O)/C=C\c3ccc4c(c3)OCO4)c(=O)[nH]c2c1C | -4.9%
Cn1c(=O)[nH]c(=O)c2c1nc(SCCO)n2CC(O)COc1ccc(Cl)cc1 (stereo not given) | 13.9%
CCOC(=O)N1CCN(C(=O)CSc2nc3[nH]ncc3c(=O)[nH]2)CC1 | 4.9%
O=C(Nc1nc(-c2nc3ccccc3s2)cs1)c1coc2ccccc2c1=O | -0.4%
CCOc1ccc(NC(=S)NCCc2cc3c(OC)ccc(OC)c3[nH]c2=O)cc1 | 1.9%
Cn1c(=O)[nH]c(=O)c2c1nc(N1CCN(c3cccc(Cl)c3)CC1)n2CCSc1ncccn1 | 6.6%
O=C(CSc1nccc(=O)[nH]1)Nc1cc(C(F)(F)F)ccc1Cl | -5.4%
CN1C(=O)C(=C2SC(=S)N(c3ccccc3F)C2=O)c2ccccc21 | 3.0%
CN1C(=O)c2cccc(NC(=O)c3sc4ccccc4c3Cl)c2C1=O | 0.5%
CC(Sc1ccccc1)C(=O)Nc1nnc(-c2ccccc2)s1 (stereo not given) | -0.2%
O=C(CSc1ccc2nnc(-c3cccc(F)c3)n2n1)NCc1ccco1 | 2.1%
CCOc1cc(C2NC(=O)NC(C)=C2C(=O)Nc2ccccc2F)ccc1O (stereo not given) | -0.3%
Cn1c(=O)[nH]c(=O)c2c1nc(N1CCN(c3cccc(Cl)c3)CC1)n2CCCSc1ncccn1 | -1.1%
Cc1ccc(C(c2sc3ncnn3c2O)N2CCOCC2)cc1 (stereo not given) | 9.1%
COc1ccc(Cl)cc1C(=O)Nc1cc(C)c2c(=O)oc3ccccc3c2n1 | -2.1%
Cc1cccc(CC(=O)NCCc2cc3c(C)ccc(C)c3[nH]c2=O)c1 | -7.3%
Cc1ccc(C)c(Nc2nc(N3CCN(Cc4ccccc4)CC3)nc3nccnc23)c1 | 0.7%
COc1ccc(CNc2ncnc3nc[nH]c23)cc1 | 8.7%
CC(C)(C)c1ccc(C(=O)Nc2sc3c(c2-c2nc4ccccc4s2)CCCC3)cc1 | 0.3%
Cc1ccc(OCC(=O)Nc2sc3c(c2C(N)=O)CCCC3)cc1 | 0.6%
COc1cccc(Cn2cc3c(-c4ccc(C)c(C)c4)nnc-3c3cc(OC)c(OC)cc32)c1 | 2.4%
Cc1ccc(C)c(-c2nnc(NC(=O)c3ccco3)o2)c1 | 81.3%
Cc1cccc(NCC(=O)Nc2ncc(Cc3ccc(Cl)c(Cl)c3)s2)c1 | 4.6%
COC(=O)c1cc(C)sc1NC(=O)CC1Nc2ccccc2NC1=O (stereo not given) | -16.8%
NC(=O)c1ccsc1NC(=O)c1ccc(S(=O)(=O)N2CCCc3ccccc32)cc1 | -2.7%

(more compounds)
mol | Mtb H37Rv
CCCN1CCC2(CC1)NC(=O)N(CC(=O)NCc1ccco1)C2=O | -0.3%
N#Cc1ccc(C(=O)Nc2sc3c(c2C(N)=O)CCCCC3)cc1 | 11.0%
COc1ccccc1CNc1nc2c(-c3cccc(Br)c3)nnn2c2ccccc12 | 4.8%
O=C(Nc1ccc(Cl)cc1)c1cc2c(=O)n3ccccc3nc2s1 | 1.1%
CC(C)N1CCc2c(sc(NC(=O)c3ccc([N+](=O)[O-])cc3)c2C(N)=O)C1 | 3.0%
Cc1ccccc1-c1nnc(NC(=O)C(Br)C(C)C)s1 (stereo not given) | 2.0%
O=C(Nc1nnc(-c2ccc3c(c2)CCCC3)o1)c1cc2cc([N+](=O)[O-])ccc2s1 | 84.1%
Cc1nc2sc(C(c3ccccc3Cl)N3CCOCC3)c(O)n2n1 (stereo not given) | -0.9%
O=S(=O)(c1cccc(Cl)c1)N1CCn2cccc2C1c1ccc(F)cc1 (stereo not given) | -7.1%
COC(=O)c1c(C)oc2ccc(OCC(=O)OC(C)C)cc12 | 7.05µg/mL*
O=C(O)CNC(=O)CC1S/C(=N/N=C/c2c(-c3ccccc3)[nH]c3ccccc23)NC1=O (stereo not given) | 0.8%
COc1ccc(S(=O)(=O)Nc2cc3c4c(c2)CC(=O)N4CCC3)cc1 | 14.8%

Four compounds picked at random from the list so far, as already listed:
mol | Mtb H37Rv
CCOC(=O)c1nn(-c2ccc(C(F)(F)F)cc2)c(=O)c2c(NC(=O)Cc3ccccc3)scc12 | 1.4%
COc1ccccc1CNc1nc2c(-c3cccc(Br)c3)nnn2c2ccccc12 | 4.8%
O=S(=O)(c1cccc(Cl)c1)N1CCn2cccc2C1c1ccc(F)cc1 (stereo not given) | -7.1%
O=C1c2cccc3cccc(c23)C(=O)N1CCc1ccc(S(=O)(=O)N2CCCCCC2)cc1 | 4.3%

More compounds.
mol | Mtb H37Rv
O=C(O)CCCN1C(=O)C(=C2C(=O)N(CC(=O)O)c3ccccc32)SC1=S | 3.5%
OCCN1CCN(c2ncnc3ccc(Br)cc23)CC1 | -5.1%
NC(=O)C1CCN(C2=NC(=O)/C(=C\c3ccc(Cl)cc3Cl)S2)CC1 | <0.2µg/mL*
COc1ccc(N2CC(NS(=O)(=O)N(C)C)CC2=O)cc1 (stereo not given) | 3.3%
COc1ccc2nc(Nc3nc(-c4ccc(Cl)s4)cs3)sc2c1 | 5.7%
COc1cc2c(=O)c(S(=O)(=O)c3ccc(F)cc3)cn(Cc3cccc(F)c3)c2cc1OC | -3.3%
COc1ccc(OCC(O)Cn2c(Br)nc3c2c(=O)[nH]c(=O)n3C)cc1 (stereo not given) | -1.8%
O=C(Cn1cc(C(=O)c2ccc(Cl)cc2)c(=O)c2cc3c(cc21)OCO3)Nc1ccc2c(c1)OCO2 | 5.4%
Cn1c(Cn2c(=O)sc3ccccc32)nnc1SCc1ccc(Cl)cc1 | 8.4%
O=C(CCc1ccccc1)Nc1c(C(=O)Nc2ccc3c(c2)OCO3)oc2ccccc12 | 8.2%
COc1cc(-c2nnc(NC(=O)c3cccc(Cl)c3)o2)cc(OC)c1OC | 1.1%
Cn1c(=O)[nH]c(=O)c2c1nc(N1CCN(Cc3ccccc3)CC1)n2Cc1ccc(Cl)c(Cl)c1 | 68.0%
Cc1ccc(S(=O)(=O)Nc2cccc(C(=O)Nc3nnc(-c4ccc5c(c4)OCCO5)o3)c2)cc1 | -28.5%
Cc1nc2sc(C(c3ccc(F)cc3)N3CCN(CCO)CC3)c(O)n2n1 (stereo not given) | -4.0%
CSc1nnc(CNC(=O)c2ccccc2)n1-c1cccc(C(F)(F)F)c1 | 14.2%
O=C(/C=C/c1ccccc1)Nc1nnc(-c2cc(Cl)ccc2Cl)o1 | 84.8%
COc1cccc(C(=O)Nc2nc3ccc4sc(C)nc4c3s2)c1 | -11.7%
Cc1nc(NC(=O)CC2CCS(=O)(=O)C2)sc1C (stereo not given) | 12.9%
COc1ccc(C)cc1Nc1ncnc(N)c1[N+](=O)[O-] | -4.5%
CCOc1ccc(C(=O)c2cn(Cc3ccccc3OC)c3ccccc3c2=O)cc1 | 2.6%
C=CCSc1nc2c(c(=O)[nH]1)C(c1cccs1)C1=C(CC(C)(C)CC1=O)N2 (stereo not given) | -2.2%
O=C(Nc1ccc(Cl)cc1)C(=O)c1c[nH]c2ccccc12 | 9.4%
COc1cccc(Nc2cc(C)nc3c(-c4ccccc4)cnn23)c1 | 1.83µg/mL*
COc1cccc(NC(=O)c2oc3ccccc3c2NC(=O)CCc2ccccc2)c1 | 10.9%
CCOC(=O)C1=C(c2ccccc2)OC(N)=C(C#N)C1CC(C)C (stereo not given) | 15.4%
O=C(Nc1nc2c(ccc3ccccc32)s1)c1ccc([N+](=O)[O-])s1 | 18.6%
COc1ccc2oc(=O)c(-c3csc(Nc4ccc(Cl)cc4)n3)cc2c1 | 25.0%
Cc1ccc(N2CC(NS(=O)(=O)c3cccnc3)CC2=O)cc1C (stereo not given) | -4.9%
CCc1ccc(NC(=O)CSc2ncnc3sc(C)c(C)c23)cc1 | -4.1%
CCCCC(=O)Nc1nnc(C23CC4CC(CC(C4)C2)C3)s1 | 14.6%
CCCCSc1nc2c(c(=O)[nH]c(=O)n2C)n1CC(O)COc1ccccc1 (stereo not given) | 26.5%
CC(=O)c1ccc(NC(=O)CSc2ccc3nnc(-c4cccnc4)n3n2)cc1 | -5.9%
